BasE inh – blocks the Acinetobacter baumannii siderophore enzyme BasE; AID 485350; inhibition, % (test concentration not listed); purified BasE, fluorescence polarization binding displacement; 84,000 tested, 0.1% active;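 active = both replicates above 25% with normal brightness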;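 note: 0% = negative plate control signal and 100% = positive plate control signal; stock transfer was 100 nL into about 30 µL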
LANA-nucl inh – inhibitors of KSHV LANA binding to nucleosomes; FITC-LANA1-23 / chicken nucleosome fluorescence polarization; stronger effect = lower value; z-score (concentration not given with the values); 51,000 tested, 0.3% active; AID 720717;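 active = both repeat wells score below -2 in polarization z-score versus plate sample wells, excluding overly bright wells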;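 note: 100 nL library stock added to about 30 µL; numbers are from one replicate; some results filed as inactive read as strong as hits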
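Assay system: purified chicken nucleosomes with FITC-labelled LANA N-terminal peptide (1-23) / Probe or stimulus: 50 nM FITC-LANA1-23 probe / Compound dosing: pin-transferred compound, 100 nL / Times: compound with peptide–nucleosome mix 10–45 min at room temperature / Technique: fluorescence polarization, 480 nm excitation, 535 nm parallel and perpendicular emission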
* marks the source's active call; other numbers are inactive results; / = no result given; & = joins results of further samples.

Second line of a record – BasE inh	LANA-nucl inh
O=C(CO/N=C/c1ccccc1O)N1CCc2ccccc21
 : 5.0	/
COc1ccc(/C(N)=N/OC(=O)Oc2ccccc2)cc1
 : 4.4	0.392
CN(C)C(=O)NC(c1ccccc1)c1ccccc1
 : 3.1	0.423
Cc1cc(C)cc(-n2c(C)cc(/C=C(\C#N)c3ccccc3)c2C)c1
 : 1.6	/
CN1C2CCC1CC(NC(=O)CSc1ccc(Cl)cc1)C2 (stereo not given)
 : /	2.59
COc1cc(SC)ccc1C(=O)OCC(=O)c1ccccc1
 : 0.8	/
O=C(NCCS(=O)(=O)c1ccc(Br)cc1)c1ccccc1
 : /	0.407
COc1ccc(C2NC(CC(C)C)(C(=O)O)C3C(=O)N(c4ccccc4OC)C(=O)C23)c(OC)c1 (stereo not given)
 : 0.6	-1.29
Cc1cnc(=O)[nH]c1SCC(=O)OCc1ccccc1
 : 0.8	0.024
Nc1nc(Cl)nc2c1ncn2[C@H]1C[C@H](O)[C@@H](CO)O1
 : /	0.403
N#CCCn1nc(-c2ccccc2)c2ccccc2c1=O
 : 1.4	-0.57
CCCn1c(CCC(=O)N(C)c2ccccc2)nc2cc(S(=O)(=O)N3CCCC3)ccc21
 : 0.6	/
c1ccc(C2CCC(=NN3CCOCC3)CC2)cc1 (stereo not given)
 : 0.9	/
COc1ccc(-c2ocnc2C(=O)N2CCN(C(=O)C(c3ccccc3)c3ccccc3)CC2)cc1
 : 1.5	0.551
CCOc1cc2[nH]c(=O)n(CCC(=O)NCc3ccco3)c(=O)c2cc1OCC
 : 1.0	-1.71

Already shown: an excerpt of the list.
Second line of a record – BasE inh	LANA-nucl inh
Cc1cc(C)cc(-n2c(C)cc(/C=C(\C#N)c3ccccc3)c2C)c1
 : 1.6	/
CN1C2CCC1CC(NC(=O)CSc1ccc(Cl)cc1)C2 (stereo not given)
 : /	2.59

2 entries from above, as labelled records:
structure: c1ccc(C2CCC(=NN3CCOCC3)CC2)cc1 (stereo not given)
  BasE inh = 0.9; LANA-nucl inh = /

structure: COc1ccc(-c2ocnc2C(=O)N2CCN(C(=O)C(c3ccccc3)c3ccccc3)CC2)cc1
  BasE inh = 1.5; LANA-nucl inh = 0.551

(list continues)
Second line of a record – BasE inh	LANA-nucl inh
O=C(O)CCNc1ccc2c(c1)OCCO2
 : -0.2	0.613
c1cc2c(cc1-c1nn3cnnc3s1)OCO2
 : 0.4	0.384
CCn1c(CNC(=O)c2ccccc2F)nnc1SCC(=O)Nc1cccc(OC)c1
 : 1.8	-0.878
CCc1nc2c(Cl)cc(Cl)cc2c(=O)o1
 : 1.8	0.164
O=C1NCCCC1C(=O)N1CCN(C(=O)c2ccco2)CC1 (stereo not given)
 : 0.8	0.19
Cc1cc(C(=O)CCC(=O)NC2CC2)c(C)s1
 : -3.5	/
FC(F)(F)c1cccc(Nc2nc3ccccc3[nH]2)c1
 : 4.2	0.911
Cc1ccccc1NC(=O)C1CC(=O)Nc2nc3ccccc3n21 (stereo not given)
 : 2.1	-0.917
COCCN=C1NN=C(c2ccc(F)cc2)CS1
 : -1.1	/
CC(CO)(CO)N=Cc1c(O)[nH]c(=O)[nH]c1=O
 : 1.9	0.418
COc1ccccc1CN(C)CC(=O)NC1CCCc2ccccc21 (stereo not given)
 : -1.7	/
O=C(N/N=C/C1CC2C=CC1C2)c1ccccc1O (stereo not given)
 : -4.9	/
CCOc1ccc(S(=O)(=O)Nc2nc3ccccc3nc2Nc2ccccc2)cc1
 : 0.9	/
Nc1ccc(Cc2ccccc2)cc1
 : -2.6	1.48
CCN1C(=O)C2C=CC=CC2NC1=S (stereo not given)
 : 0.3	/
CCOc1ccc(NC(=O)N(CCN(C)C)C(C)c2cccnc2)cc1 (stereo not given)
 : -0.2	-0.26
CC(=O)NN=C1CCCCCCC1
 : 0.0	-0.643
O=c1[nH]c(=O)n(C2CCCCC2)c(O)c1/C=C1\C=Nc2ccccc21
 : 4.0	/
CCN(CC)C(=O)C1CCCN(S(=O)(=O)c2ccc(OC)c(OC)c2)C1 (stereo not given)
 : -1.3	0.954
CC(C)CCNc1ccc(-c2ccc(Cl)cc2)nn1
 : -0.2	-0.85
C=C(C)Cn1c(SCC(=O)NN)nc2ccccc2c1=O
 : 2.1	/
CCOC(=O)Nc1ccc(Cl)cc1
 : -4.9	/
Cc1nc2c(C)cccn2c1C(=O)Nc1ccc(F)cc1F
 : /	-0.211
CCOC(=O)c1cnc2c(C)cc(C)cc2c1Nc1ccc(S(=O)(=O)Nc2ncccn2)cc1
 : 0.1	/
Nc1c(N2CCOCC2)ccc2nsnc12
 : 6.2	-0.783
CC1CN(c2ccccc2)c2nc3c(c(=O)n(C)c(=O)n3C)n2C1 (stereo not given)
 : 2.9	0.557
CC1CCCCN1C(=S)NC(=O)c1ccco1 (stereo not given)
 : 1.9	/
Cc1nn2c3ccccc3n(C)c2c1C(=S)Nc1ccccc1
 : 0.6	/
CCCN(CCC)C(=S)Nc1ccccc1
 : 0.4	0.625
C/C(=N\O)C(C)(C)Nc1ccc(Br)cc1
 : -1.6	0.363

Four structures already listed, ordered by length of the SMILES, low to high:
Second line of a record – BasE inh	LANA-nucl inh
CN(C)C(=O)NC(c1ccccc1)c1ccccc1
 : 3.1	0.423
N#CCCn1nc(-c2ccccc2)c2ccccc2c1=O
 : 1.4	-0.57
Cc1ccccc1NC(=O)C1CC(=O)Nc2nc3ccccc3n21 (stereo not given)
 : 2.1	-0.917
COc1ccc(-c2ocnc2C(=O)N2CCN(C(=O)C(c3ccccc3)c3ccccc3)CC2)cc1
 : 1.5	0.551

(further entries)
Second line of a record – BasE inh	LANA-nucl inh
Cc1cc(C)nc(SCCSc2nc(C)cc(C)n2)n1
 : 2.2	-0.215
Cc1ccccc1-c1nnn(-c2nc(CN3CCOCC3)nc3sc4c(c23)CCCC4)n1
 : 1.2	/
Cc1nc2ccc(N=NC3=C(O)CC(C)(C)CC3=O)cc2s1
 : 4.3	0.265
Clc1ccc2ncnc(-c3ccccc3)c2c1
 : 1.8	-0.711
CC1CC1c1ccc(CCC(=O)O)o1 (stereo not given)
 : 0.4	/
O=C(NC1CCCc2ccccc21)C1COc2ccccc2O1 (stereo not given)
 : 3.0	/
CCOC(=O)c1noc2c1C1=NCCN1C=N2
 : 0.1	-0.954
CC(C)C(NC(=O)CCc1ccccc1)C(C)C
 : -1.8	-0.133
COC(=O)c1ccc(/C=C(\C#N)C(N)=S)cc1
 : 2.8	-0.016
COc1ccc2nc(NNC(=O)c3ccccc3)sc2c1
 : -0.3	-1.27
CCCCC/C=C/C=C1/C(=O)C=C[C@@H]1C/C=C\CCCC(=O)O
 : 1.9	-0.099
O=C(NCCc1ccccc1)c1cc2ccccc2oc1=O
 : 1.1	/
CC(NC(=O)c1ccc(=O)n(C)n1)C1CC2CCC1C2 (stereo not given)
 : -1.1	/
COc1cc(S(=O)(=O)N2CCOCC2)cc(C(=O)c2nccn2C)c1OC
 : 2.7	/
CC1CCCN(C(=O)c2ccc3ncsc3c2)C1 (stereo not given)
 : -2.2	/
COc1ccc(-c2noc(-c3ccc(OC)cc3)n2)cc1
 : 2.5	/
Cc1cnn(C(=O)c2cc3ccccc3oc2=O)c1
 : -1.5	0.635
O=C(O)Cc1ccc(S(=O)(=O)N2CCCC2)s1
 : 1.4	/
COC(=O)[C@H](c1ccccc1Cl)N1CCc2sccc2C1
 : -1.1	0.298&0.0275&-4.37
CCCCC(=O)Nc1nn2c(COc3ccc(C)cc3)nnc2s1
 : -1.4	-0.277
O=C(CC(c1ccccc1)c1cc(Cl)ccc1O)N1CCOCC1 (stereo not given)
 : 3.1	-0.396
COc1ccccc1C(=O)Nc1ccon1
 : -1.9	1.41
C=CCN1C(=O)C2(C(C#N)=C(N)Oc3ccccc32)c2c1c1ccccc1oc2=O (stereo not given)
 : 4.0	-0.724
Cc1cc(C(=O)Nc2nc(C34CC5CC(CC(C5)C3)C4)cs2)no1
 : 1.1	-0.179
O=C(O)C(Cc1c[nH]c2ccccc12)N1C(=O)CCC1=O (stereo not given)
 : 0.6	/
CS(=O)(=O)c1ccc(NC(=O)CC2OC(=O)c3ccccc32)cc1 (stereo not given)
 : 2.4	/
O=C1CCC(=O)N1CN1CCN(c2ccccc2)CC1
 : -0.4	-0.407
C=CCn1c(NCc2ccccc2OC)nc2ccccc21
 : 1.9	-0.129
CCOC(=O)c1ccc2c(c1)[nH]c(=S)n2CC
 : 0.1	1.04
CCOC(=O)c1cc(-c2ccc(S(=O)(=O)NCCCN3CCOCC3)s2)on1
 : -2.7	-0.0795
NC(=O)NC(=O)CSc1nc(N)cc(=O)[nH]1
 : -1.7	/
Clc1nc2ccc3nsnc3c2nc1Cl
 : 1.7	/
COc1cccc(C=Nc2cccc3c(=O)[nH][nH]c(=O)c23)c1O
 : 3.7	0.379
O=S(=O)(c1ccc2c(c1)OCCO2)N1CCN(c2ncccn2)CC1
 : -0.4	0.519
COc1ccc(C(=O)O/N=C(/N)C2COc3ccccc3O2)cc1 (stereo not given)
 : -0.9	-0.708
Cc1ccc(C(=O)Nc2nc3ccccc3c(=O)s2)cc1
 : 0.7	0.41
O=C(CSc1nnc2ccccn12)Nc1ccc2c(c1)OC(F)(F)O2
 : 0.2	/
CCOC(=O)N1CCC2(CC1)Oc1ccccc1C1CC(c3ccccc3)=NN12 (stereo not given)
 : -0.4	-0.822
O=c1[nH]c(O)c(N=Nc2ccccc2)s1
 : -0.1	0.175
O=C(O)CCCc1c(-c2ccccn2)[nH]c2ccc(F)cc12
 : 3.1	-1.08
CCCCn1c(C2CC(=O)N(c3ccccc3OC)C2)nc2ccccc21 (stereo not given)
 : 0.6	/
CNC(=S)N/N=C/c1cc(OC)c(OC)cc1OC
 : 3.3	/
C=CCNC(=O)N1CCc2[nH]c3ccc(F)cc3c2C1
 : 2.2	/
Cn1ccnc1SCC(=O)c1ccc2ccccc2c1
 : 4.0	/
COc1cc(SC)ccc1C(=O)NN1CCOCC1
 : 0.2	/

Continued.
molecule	BasE inh	LANA-nucl inh
O=C(O)c1cc(=O)c2c(O)cccc2o1	2.1	/
CCOC(=O)N1CCN(C(=O)c2cc(-c3cccc(OC)c3)n[nH]2)CC1	-6.0	1.8
Nn1c(SCC(=O)N(Cc2ccco2)C2=CCCCC2)nnc1-c1ccc(OC(F)F)cc1	-2.6	/
O=C(N[C@@H](Cc1ccccc1)c1nc2ccccc2[nH]1)c1ccc(=O)[nH]c1	0.3	/
CCN1CCN(C(=O)C(Cc2ccccc2)NS(=O)(=O)c2ccc3c(c2)c(=O)n(C)c(=O)n3C)CC1 (stereo not given)	0.9	0.874
Cc1nnc2n1N=C(c1ccc(-c3cc(Cl)ccc3Cl)o1)CS2	2.5	0.723
CCOc1ccc2[nH]c(=O)c(CN(CC3COCCO3)C(=O)C3CC3)cc2c1 (stereo not given)	-0.6	0.615
CSC(=S)N/N=C(\C)c1ccccc1	1.6	/
CCC1(CC)Cc2ccccc2C(Nc2c(C)n(C)n(-c3ccccc3)c2=O)=N1	1.3	/
CN(C)c1cnn(-c2cnc3ccccc3n2)c(=O)c1Cl	1.8	/
COCCNC(=O)c1ccc2c(Cl)c3c(nc2c1)CCCC3	-4.7	0.226
O=C(CSc1ncc(CO)n1Cc1ccc(Cl)cc1)N1CCN(c2ccccc2)CC1	2.2	-0.922
O=C(O)CONC1=NS(=O)(=O)c2ccccc21	-1.6	/
Cc1ccc(S(=O)(=O)CCC(=O)Nc2ccc(S(N)(=O)=O)cc2)cc1	-4.9	0.152
CN1CCN(c2ccc(NC(=O)c3cccc4c3OC(C)(C)C4)cc2)CC1	/	0.142
Cc1oc(-c2ccccc2)nc1CSc1nncn2c1cc1sccc12	-0.7	1.36
CC(=O)N=c1sc(S(N)(=O)=O)nn1C	1.6&-0.4	1.06&0.042&0.16
CC(C)(C)C(=O)C(CO)(Oc1ccc(Cl)cc1)n1cncn1 (stereo not given)	2.3	/
Cc1cnc(C(=O)OCC(=O)C(C)(C)C)cn1	2.7	/
COc1ccc(CN2CCN(c3ncnc4scc(-c5ccc(Cl)cc5)c34)CC2)cc1F	-1.0	/
CC1=CC(=C2C(=O)NC(=S)NC2=O)C=C(C)N1CC(C)C	2.1	-1.8
O=C(NCC1COc2ccccc2O1)Nc1ccccc1F (stereo not given)	2.9	/
Cc1c(C)c(C)c2[nH]c(SCc3nc(-c4ccc(Cl)cc4)no3)nc2c1C	2.1	/
Cc1nc(-c2ccccc2)sc1C(N)=O	-0.1	0.226
COc1ccc(CN=C(C)c2c(O)[nH]c(=O)[nH]c2=O)cc1	0.9	/
Cc1cc(C(=O)O)no1	1.3	/
CC(=O)Nc1ccc(-n2sc3c(c2=S)-c2cc(C)ccc2NC3(C)C)cc1	3.0	/
Nc1ncccc1C(=O)OCCN1C(=O)c2ccccc2C1=O	8.1	/
CCCN(CCC)C(=O)c1c(C)[nH]c(C(=O)OCC)c1C	-1.0	-0.182
COc1ccc(NC(=O)CCc2c(C)c3c(C)nn(-c4cccc(F)c4)c3n(C)c2=O)cc1OC	0.0	0.812
O=C(O)C1CC(=O)N(Cc2ccncc2)C1 (stereo not given)	2.6	0.053
OCCNc1nc(N2CCOCC2)ncc1F	-0.4	-1.02
Cc1noc(C)c1COc1ccc(C(=O)OCC(=O)NC2CCCc3ccccc32)cc1 (stereo not given)	2.6	/
Cn1c(-c2ccccc2)cnc1NC(=O)c1ccc(F)cc1	1.1	-0.0465
O=C(NCCc1nnc2ccc(SCC(=O)N3CCc4ccccc43)nn12)c1ccccc1	2.2	-0.55
Cc1[nH]c(=O)c(C#N)cc1-c1ccccc1	/	1.16
Cc1n[nH]c(=O)[nH]c1=O	-0.1	-0.7

Source: PubChem

Some of the compounds tested; rates above refer to the full screens.
